Assay outcomes deposited in PubChem by National Center for Advancing Translational Sciences (NCATS).
HPGD inh: qHTS Assay for Inhibitors of HPGD (15-Hydroxyprostaglandin Dehydrogenase) | purified HPGD, NADH fluorescence kinetic, PGE2 substrate | Potency, µM, for the others: at the highest dose activity change, negative = inhibition, usual class: inhibitors | 150,000 tested, 4.3% active; active = well fitted inhibition curve with a large enough effect (not every such curve was filed as active); inconclusive = small, poorly fitted or top-dose-only effect, or another doubt; inactive = no such curve, though single readings can be large or run the other way;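 note: top concentration of the series not given in the record; plate controls included wells without enzyme; inactives centre near -10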
Target sequence (P15428 whole entry, looked up): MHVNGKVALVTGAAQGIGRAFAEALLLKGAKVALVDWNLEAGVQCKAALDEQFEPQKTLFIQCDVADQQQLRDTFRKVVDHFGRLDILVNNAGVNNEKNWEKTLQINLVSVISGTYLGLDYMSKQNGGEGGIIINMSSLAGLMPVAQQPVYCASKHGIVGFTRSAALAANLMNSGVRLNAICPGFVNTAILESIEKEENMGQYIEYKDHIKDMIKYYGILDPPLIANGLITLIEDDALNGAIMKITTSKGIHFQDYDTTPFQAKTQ
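NADH formation kinetics: reaction with 30 uM PGE2 and 1 mM NAD+ (final), 20 nM enzyme, Tris-HCl pH 8 with Tween 20, after 15 min compound preincubation at room temperature. Fluorescence change, last versus first of five reads.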
* hit, by the source's call; ? = inconclusive; & = joins results of further samples. % is set by controls: 0 for no effect and ±100 for the full control effect; potency is the fitted concentration of half-maximal effect. These rows are one share of the data; count on the stated rates, not on these rows.

SMILES	HPGD inh
COc1ccc(NS(=O)(=O)c2ccc3oc(SCc4ccc(F)cc4)nc3c2)cc1	-16.6%
CCOc1ccc(Cl)cc1CN1CCOCC1	6.4%
O=C(COc1ccc(S(=O)(=O)N2CCOCC2)cc1)NC1CCCC1	-18.1%
O=C(CSC1=NC2(CCCCCC2)N=C1c1ccccc1)Nc1ccc2c(c1)OCCO2	-14.3%
Cc1cc(C)n(Cc2ccccc2)c(=O)c1S(=O)(=O)c1ccccc1	-5.1%
CCCCCCn1c(CN2CCCCC2CC)nc2c1c(=O)n(C)c(=O)n2C (stereo unspecified)	-10.4%
CCCCc1nc2c(c3c1C[C@H](C)OC3)CN(C(=O)Cc1cccc(OC)c1)CC2	-6.5%
CCOc1ccccc1NC(=O)Cn1nnc(-c2ccc(OCC)c(OCC)c2)n1	-2.3%
Cc1nc2cc(NC(=O)N(C)c3ccc4ccccc4c3)ccc2o1	-17.8%
COc1cccc(C(=O)Nc2cc(C(F)(F)F)ccc2Cl)c1	-10.7%
Cc1ccccc1-c1nc(CN2CCC(C(=O)NCc3cccs3)CC2)c(C)o1	-11.2%
COc1ccc(N(CC(=O)NC2CCCCCCC2)S(=O)(=O)c2c(C)nn(C)c2C)cc1	-10.8%
CCOC(=O)c1c(N)sc(-c2ccccc2)c1C	?
COCCn1nnnc1C(c1ccccn1)N1CCN(c2cccc(C)c2C)CC1 (stereo unspecified)	-3.0%
COc1cc(C(=O)Nc2cc(-c3nc4cc(C)ccc4o3)ccc2C)cc(OC)c1OC	-14.6%
CCOc1ccc2c(C)cc(=O)oc2c1OCC	-21.6%
CSc1nc(Sc2ccccc2)c2ccccc2n1	-24.0%
CCOc1ccc(OCCSc2nc(C)cc(=O)[nH]2)cc1	-16.9%
Cc1cc(Br)c2[nH]c3c(c2c1)CCCC3=O	-21.9%
C/C(N)=C(/C#N)C(=O)CSc1nc2ccccc2[nH]1	-26.3%
CCOc1ccccc1N(CC(=O)Nc1ccc2c(c1)OCCO2)S(C)(=O)=O	-9.4%
CCCCn1c(SCC(=O)N2CC(C)CC(C)C2)nc2cc(S(N)(=O)=O)ccc21 (stereo unspecified)	?
COc1ccc(CNCCC(c2ccc(F)cc2)c2ccc(OC)cc2)cc1 (stereo unspecified)	-2.1%
COc1cc(C(=O)N2CCN(C(=O)c3ccccc3)CC2)cc(OC)c1OC	-5.7%
CCOC(=O)c1cc2sccc2n1CC(=O)Nc1ccc(OC)cc1	-1.1%
c1cncc(-c2nnc3sc(C4CCCCC4)nn23)c1	-10.6%
O=C(CCc1ccc(S(=O)(=O)NC2CCCCC2)cc1)N(Cc1ccccc1)Cc1ccccc1	-14.4%
CCn1c(COc2ccc(C)cc2)nnc1SCC(=O)Nc1ccc2c(c1)OCCO2	-12.1%
Cc1ccccc1-c1noc(-c2cccs2)n1	-24.1%
CC(C)n1cnc2cc(NCc3ccccn3)ccc21	-18.6%
CC1(C)CC(CC(=O)Nc2ccccc2[N+](=O)[O-])C(=O)O1 (stereo unspecified)	-21.0%
O=C(CN1CCN(CC(=O)Nc2ccccc2C(F)(F)F)CC1)Nc1ccccc1F	-7.7%
C[C@@]12C[C@H](O)C3[C@H](CCC4=CC(=O)CC[C@]43C)[C@H]1CC[C@@H]2c1csc(N)n1 (stereo partly specified)	-3.2%
Cc1c(C#N)c(N=CN(C)C)c(C(=O)c2ccc(Br)cc2)n1-c1ccccc1	-8.0%
Cc1ccccc1NCc1ccc(O)c2ncccc12	-2.0%
CC(C)CC(COCc1ccc(Cl)cc1)N1CCN(C(=O)c2ccc(Cl)cc2Cl)CCC1=O (stereo unspecified)	-19.0%
N#Cc1c(Sc2ncc(C(F)(F)F)cc2Cl)nsc1C/C=N\OCc1ccccc1Br	-25.1%
CC(SC1=NCCS1)C(=O)Nc1nnc(-c2ccc(Br)cc2)s1 (stereo unspecified)	-15.6%
O=C(Cc1c(Sc2ccccc2)c2ccccc2n1Cc1ccccc1)NCCO	?
CCC(C)C(=O)OC1CC(O)C=C2C=CC(C)C(CCC(O)CC(O)CC(=O)O)C21 (stereo unspecified)	-8.9%
CC(=O)c1ccc(N2CCN(S(=O)(=O)c3cccc(S(=O)(=O)N4CCOCC4)c3)CC2)cc1	-7.2%
COC(=O)[C@H]1C[C@@H]1[C@H](NS(=O)(=O)c1ccc2ccccc2c1)c1ccccc1	-7.9%&-7.2%
CC(C)(C)n1nnnc1C(c1ccc(C(F)(F)F)cc1)N(Cc1ccccc1)Cc1ccco1 (stereo unspecified)	-10.9%
N/C(=N\OC(=O)c1ccccc1Cl)c1ccc(Cl)cc1	15.8µM*
Cc1ccc(Nc2nc(N)nc(CN3CCN(C(=O)c4ccco4)CC3)n2)cc1Cl	-25.2%
CCOC(=O)C(NC(=O)c1ccccc1)(N1CCOCC1)C(F)(F)F (stereo unspecified)	-4.5%
CCOC(=O)COc1ccsc1C(=O)OC	0.5%
O=C(O)CC(C(=O)OC1CCCCC1)N1CCOCC1 (stereo unspecified)	0.6%

Brought forward from above: two compounds, then new ones.
SMILES	HPGD inh
CCOC(=O)COc1ccsc1C(=O)OC	0.5%
O=C(O)CC(C(=O)OC1CCCCC1)N1CCOCC1 (stereo unspecified)	0.6%
COc1ccc2[nH]c(O)c(N=O)c2c1	-2.8%
CN(C)c1ncnc2c1ncn2CCn1cnc2c(N(C)C)ncnc21	-0.3%
CCOC(=O)c1c2n(c3c(NCc4ccccc4)ncnc13)CCCC2	-19.4%
COc1cc(/C=C/C(=O)OCC(=O)Nc2ccc(C)c(S(=O)(=O)N3CCCCC3)c2)ccc1O	?
CCCOc1ccc(C(=O)NNC(=S)NC(=O)CC)cc1	-16.1%
O=C(COC(=O)c1ccccc1Sc1ccc(C(F)(F)F)cc1[N+](=O)[O-])NC(=O)NC1CCCC1	-27.1%
CCCCCCn1nc(C(=O)Nc2nc3c(s2)CCCC3)c2ccccc2c1=O	-15.6%
CCCn1c(SCC(=O)Nc2ccccc2CC)nnc1C(C)C	-1.0%
CCOC(=O)C1CCCN(c2ccc(NC(=O)c3snc4c(=O)[nH]cnc34)cc2)C1 (stereo unspecified)	-26.4%
CCCCSc1nnc([C@H](CC(C)C)NC(=O)OC(C)(C)C)o1	-2.4%
COc1nnc(-c2ccc(C(=O)N3C[C@@H]4C[C@H](C3)c3cccc(=O)n3C4)cc2)c2ccccc12	-12.0%
CS(=O)(=O)N(CC(=O)NC1CC1)C1CCCCC1	-6.6%
COc1ccc(NC(=O)CCCn2c(=S)[nH]c3ccccc3c2=O)cc1	-4.2%
CC(=O)OC1CCC2(C)C3=C(CCC2C1(C)C)[C@@]1(C)CCC(C(C)CCC=C(C)C)[C@@]1(C)CC3 (stereo partly specified)	-0.8%
CCC(Sc1ncccc1C(=O)O)C(=O)N1CCOCC1 (stereo unspecified)	-3.2%
COc1ccc(Cl)cc1S(=O)(=O)N1CCN(C(=O)COc2ccccc2)CC1	-4.8%
O=C(O)Cc1ccccc1C(=O)O	-6.3%
CC(C)Sc1oc(-c2ccco2)nc1S(=O)(=O)c1ccc(F)cc1	-23.8%
CCOC(=O)c1c(C)[nH]c(C)c1C(=O)COC(=O)c1ccc(Cl)c(S(=O)(=O)NCc2ccccc2)c1	-10.8%
COC(=O)c1ccc(NC(=O)C2CCCN(S(=O)(=O)c3cnc[nH]3)C2)cc1 (stereo unspecified)	-15.5%
COc1ccc(S(=O)(=O)N2CCOC2CNC(=O)C(=O)NCCc2ccc(OC)c(OC)c2)cc1C (stereo unspecified)	-0.6%
COc1cccc(OC)c1C(=O)N1CCN=C1SCc1cccnc1	-6.9%
Fc1ccc(/C=N/Nc2ncnc3nc[nH]c23)cc1F	-7.4%
CCOC(=O)c1cccc(Nc2nc(C)cc(C)n2)c1	-8.6%
CC1CN(C(=O)C(c2ccccc2)c2ccccc2)CC(C)O1 (stereo unspecified)	-6.3%
C=CCSc1nc2sc(C)c(C)c2c(=O)n1N	-2.6%
COc1cc2c(cc1NC(=O)COC(=O)[C@@H](NS(=O)(=O)c1ccccc1)C(C)C)oc1ccccc12	-26.5%
Fc1ccc(NC(=S)Nc2ccccc2OC(F)F)cc1Cl	-7.0%
N#CCCN1CCN(S(=O)(=O)c2ccc(S(=O)(=O)NC3CC3)cc2)CC1	-4.8%
CCn1c(CC(=O)Nc2ccc(C)c(Cl)c2)nnc1SCCOc1ccc(OC)cc1	-11.9%
CC(NCCOCCOc1ccccc1)c1ccccc1 (stereo unspecified)	-2.9%
O=C(Oc1ccc(Cl)cc1)c1ccc(COC(=O)c2cnccn2)cc1	-20.5%
NC(=O)COC(=O)CC(NC(N)=O)c1ccc(Cl)cc1 (stereo unspecified)	-13.0%
O=C(Nc1cccs1)OCCN1CCN(Cc2ccccc2)CCC1=O	-14.8%
CCCCc1c(CCC)c(=N)c2ccccc2n1C	-22.1%
Cc1ccc(CN2C(=O)CCC2C(=O)NCCCN2CCCC(C)C2)cc1 (stereo unspecified)	1.1%
C/C(=N\NS(=O)(=O)c1ccc(C)cc1)c1cccs1	1.0%
CN1CCN(C(=O)c2c(O)c3cccc4c3n(c2=O)CCC4)CC1	-11.2%
COc1ccccc1NC(=O)COC(=O)[C@@H]1CCCN1C(=O)c1cccs1	-19.5%
N#CC1=C(N)C(C#N)(C#N)C(c2cccnc2)C2CC(c3ccccc3)CC=C12 (stereo unspecified)	-27.0%
CCOC(=O)c1c(NC(=O)C2COc3ccccc3O2)sc(C)c1C (stereo unspecified)	-28.4%
CC(=O)NS(=O)(=O)c1ccc(NC(=O)c2cc(-c3ccc(C)c(C)c3)nc3ccccc23)cc1	-23.2%
N#Cc1cc(C(=O)c2cc(Cl)ccc2O)cn(-c2ccccc2)c1=O	-15.3%
O=[N+]([O-])c1ccccc1/C=N/N1CCN(c2ccncc2S(=O)(=O)N2CCCCC2)CC1	-5.9%
CC(=O)NCc1ccc(C(=O)CSc2nnc(-c3ccncc3)n2Cc2ccccc2)o1	-22.6%
COc1ccc(C(=O)Cn2nnc(-c3ccccc3NC(=O)c3ccco3)n2)cc1	?
CC1(O)CC2C(CC1O)C2(C)C (stereo unspecified)	-8.5%
NCCCCCc1nnc(SCc2ccc(Cl)cc2Cl)o1	2.2%

Reprinted from the part before: 6 entries; new compounds follow.
SMILES	HPGD inh
N#Cc1cc(C(=O)c2cc(Cl)ccc2O)cn(-c2ccccc2)c1=O	-15.3%
O=[N+]([O-])c1ccccc1/C=N/N1CCN(c2ccncc2S(=O)(=O)N2CCCCC2)CC1	-5.9%
CC(=O)NCc1ccc(C(=O)CSc2nnc(-c3ccncc3)n2Cc2ccccc2)o1	-22.6%
COc1ccc(C(=O)Cn2nnc(-c3ccccc3NC(=O)c3ccco3)n2)cc1	?
CC1(O)CC2C(CC1O)C2(C)C (stereo unspecified)	-8.5%
NCCCCCc1nnc(SCc2ccc(Cl)cc2Cl)o1	2.2%
COC(=O)c1[nH]c2cc(OC)c(OC)cc2c1NC(=O)c1cccc(OC)c1	-8.1%
COc1ccc(Cc2nn3c(-c4cc(OC)c(OC)c(OC)c4)nnc3s2)cc1	22.4µM*
CN(Cc1ccccc1)c1nc(-c2cccc([N+](=O)[O-])c2)nc2ccccc12	-4.8%
Cc1ccc(-c2cc(C(=O)N/N=C/c3c(C)nn(-c4ccccc4)c3C)n[nH]2)s1	?
CCc1ccc(C(C(=O)NCCOC)N(C(=O)Cn2nnc3ccccc32)c2cccnc2)cc1 (stereo unspecified)	0.4%
CCc1ccc(-c2csc(NC(=O)COC(=O)CCc3nc4ccccc4s3)n2)cc1	-7.8%
COc1cccc2c1OC[C@@H](CO)[C@H]2N(C)C(=O)Nc1ccccc1	0.0%
Cc1ccccc1OCC(=O)O/N=C(\N)Cc1cccs1	-15.2%
CC1CC(C)CN(c2oc(-c3ccccc3Cl)nc2C#N)C1 (stereo unspecified)	?
CC(C)(C)OC(=O)NC(CCCCNC=O)C(=O)O (stereo unspecified)	-4.0%
O=C(CS(=O)(=O)c1ccccc1)N1CCCCCC1	-9.5%
N#CCCN1CCN(Cc2cc(-c3ccccc3)ccc2O)CC1	-29.8%

Part of the list above in order of formula weight, low to high:
SMILES	HPGD inh
O=C(CS(=O)(=O)c1ccccc1)N1CCCCCC1	-9.5%
Cc1ccc(-c2cc(C(=O)N/N=C/c3c(C)nn(-c4ccccc4)c3C)n[nH]2)s1	?
CCc1ccc(C(C(=O)NCCOC)N(C(=O)Cn2nnc3ccccc32)c2cccnc2)cc1 (stereo unspecified)	0.4%

New compounds follow:
SMILES	HPGD inh
CCOC(=O)c1c(C)c(C(=O)N2CCc3ccccc3C2)c(C)n1CC	4.47µM*
Cc1cc(NC(=O)CSc2nc(-c3cccs3)cc(C(F)(F)F)n2)no1	-12.4%
COc1ccc(CC(=O)Nc2ccc3c(c2)OCO3)cc1S(=O)(=O)N1CCOCC1	-13.8%
CCn1c(SCC(=O)N2CCCCC2C)nnc1-c1ccc(S(=O)(=O)N2CCN(C)CC2)cc1 (stereo unspecified)	-25.4%
COc1cc(C2=Nc3c(c(C)nn3-c3ccccc3)P(=O)(N3CCOCC3)O2)cc(OC)c1OC (stereo unspecified)	-4.4%
CC(=O)NC(CCS(C)(=O)=O)C(=O)Nc1cccc(C)c1 (stereo unspecified)	-2.2%
COc1ccc(OC)c(C2SCCN2S(C)(=O)=O)c1 (stereo unspecified)	-9.0%
CCCOc1cccc(C(=O)Nc2nnn(CCC)n2)c1	-4.6%
CCOc1c2ccc(C(=O)NCCCCc3ccccc3)cc2nn1CC	?
